Screens: PubChem BioAssay, National Center for Advancing Translational Sciences (NCATS)
Rango release inh – inhibition of RanGTP-driven Rango-importin beta dissociation; O95149+P62826; Biochemical FRET Rango-importin beta, RanGTP-induced dissociation; Potency, µM (highest dose often 46.1 µM), inactives show at the top dose activity change, negative = inhibition; actives 0.071% (n = 340,000); active means falling FRET ratio curve, often poorly fitted, with flat reads before Ran was added; inconclusive means other falling curves, or compound fluorescence or quenching; inactive means flat or rising ratio curve;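 note: potency is the fitted concentration of half-maximal effect; % of control where 0% means no effect; nearly all actives have a fitted effect of over 45% in size; -100% = wells without RanGTP and RCC1; the record marks most hits as doubtful in a second field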
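Two FRET readings bracket the reaction: one 5 min after compound meets Rango–importin beta, another 45 min after RanGTP-RCC1 (0.6 uM Ran, 0.2 uM RCC1, 2 mM GTP) is added. Only the second defines inhibition.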
GLA inh pH 4.5 – alpha-galactosidase A (human) inhibition, pH 4.5; purified enzyme, 4-MU-alpha-Gal fluorescence, pH 4.5; activity change, negative = inhibition, % at 105 µM; 230,000 tested, under 10 active; inconclusive = small, poorly fitted or top-dose-only inhibition, or a rising curve; inactive = flat fitted curve, though single readings scatter; no compound was filed as active;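 note: 0% = full activity with enzyme and -100% = basal without enzyme; dose as in the result columns while the protocol names 77 µM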
Rango-impB inh – inhibitors of Rango-importin beta complex formation; actives 0.031% (n = 340,000); Potency, µM (doses to about 92.2 µM), without a hit: at the highest dose inhibition of complex formation; Q14974; AID 540263; Rango CFP/YFP FRET sensor + importin beta, 45 min; active = rising FRET ratio curve, often small or poorly fitted; inconclusive = mostly compound fluorescence or quenching in the first reads; inactive = flat curves in all reads;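 note: potency is the fitted concentration of half-maximal effect; 0% = DMSO wells and 100% = buffer wells lacking importin beta; nearly all actives have a fitted effect of over 15% in size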
Target sequence (Q14974 whole entry, looked up): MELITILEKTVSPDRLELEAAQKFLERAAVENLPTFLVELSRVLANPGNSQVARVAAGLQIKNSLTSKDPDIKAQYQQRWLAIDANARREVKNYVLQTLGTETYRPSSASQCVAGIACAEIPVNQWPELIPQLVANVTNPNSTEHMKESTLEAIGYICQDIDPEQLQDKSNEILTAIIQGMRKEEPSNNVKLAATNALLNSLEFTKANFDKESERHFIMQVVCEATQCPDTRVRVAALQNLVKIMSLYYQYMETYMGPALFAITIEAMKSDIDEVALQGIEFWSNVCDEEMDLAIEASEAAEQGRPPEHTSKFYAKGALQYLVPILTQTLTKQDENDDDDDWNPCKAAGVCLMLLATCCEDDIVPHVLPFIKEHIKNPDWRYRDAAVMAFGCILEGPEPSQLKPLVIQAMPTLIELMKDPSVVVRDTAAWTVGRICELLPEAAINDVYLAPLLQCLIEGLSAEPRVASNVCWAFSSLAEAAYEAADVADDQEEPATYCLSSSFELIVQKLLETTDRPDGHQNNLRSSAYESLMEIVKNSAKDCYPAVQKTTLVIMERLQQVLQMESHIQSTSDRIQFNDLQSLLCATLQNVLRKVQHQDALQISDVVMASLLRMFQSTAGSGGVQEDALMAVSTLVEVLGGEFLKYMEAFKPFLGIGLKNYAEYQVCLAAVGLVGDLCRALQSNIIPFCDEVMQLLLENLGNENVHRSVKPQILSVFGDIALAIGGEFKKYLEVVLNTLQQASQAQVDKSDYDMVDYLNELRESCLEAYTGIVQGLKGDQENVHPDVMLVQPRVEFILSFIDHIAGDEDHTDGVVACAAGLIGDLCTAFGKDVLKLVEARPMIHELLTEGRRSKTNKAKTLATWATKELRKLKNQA
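Inhibition scored from the CFP 486 nm/YFP 530 nm FRET ratio 45 min after adding 0.125 microM importin beta to 50 nM Rango biosensor preincubated 5 min with compound (room temperature, PBS with DTT, Tween-20, BSA). No-importin wells as positive control.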
miR-21 FLuc – miR-21 reporter, rising signal | HeLa miR-21 FLuc reporter, luciferase, 48 h | Potency, µM (highest dose often 38.3 µM), without a hit: at the highest dose reporter change, positive = more light | 340,000 tested, under 10 active; active = well fitted rising curve with a large enough effect; inconclusive = small, poorly fitted or top-dose-only effect; inactive = no such curve, though single readings can be large or run the other way;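 note: % of control where 0% means no effect; miR-21 action dims this reporter so a rising signal means less miR-21 action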
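Compounds were titrated across several concentrations (up to approximately 40 uM) and incubated 48 hours with HeLa miR-21-FLuc reporter cells (miR-21 target sequence downstream of FLuc, endogenous miR-21). Readout was firefly luciferase luminescence after lytic detection reagent.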
* hit, by the source's call; & = joins results of further samples. Some of the compounds tested. The share of hits here may be higher or lower than overall.

For COc1ccc(S(=O)(=O)N2CCCCCC2)cc1NC(=O)c1ccccc1S(C)(=O)=O the results were Rango release inh 10% and Rango-impB inh -0.5%.
`CCOc1ccc(/C=N/OCC(=O)NCc2cccs2)cc1` gave Rango release inh -1%, GLA inh pH 4.5 -9, Rango-impB inh -2.9% and miR-21 FLuc 1%.
For COc1cccc(C(=O)NNC(=O)/C=C/c2ccccc2)c1 the results were Rango release inh 3%, Rango-impB inh -0.3% and miR-21 FLuc 1%.
`CC(C)(C)C(=O)CN1C(=O)NC2(CCOc3ccccc32)C1=O` (centres undefined) gave Rango release inh 0%, Rango-impB inh 3.6% and miR-21 FLuc 0%.
`CCOC(=O)c1ccc(-c2c(C)cc3oc(=O)cc(-c4ccccc4)c3c2C)cc1` gave Rango release inh 22%, GLA inh pH 4.5 -11 and Rango-impB inh 1.9%.
For CC(C)CNC(=S)NC(=O)c1ccc(Cl)cc1Cl the results were Rango release inh 8%, GLA inh pH 4.5 0, Rango-impB inh -5.9% and miR-21 FLuc -51%.
O=C(O)c1oc2ccccc2c1CN1CCN(c2ccccc2)CC1 was read as Rango release inh 6%, GLA inh pH 4.5 2, Rango-impB inh -0.2% and miR-21 FLuc -1%.
Screening O=C(CSc1nc(C2CCCCC2)n(-c2ccccc2)n1)NCCN1C(=O)CSC1=O returned Rango release inh 0%, GLA inh pH 4.5 3, Rango-impB inh inconclusive and miR-21 FLuc -9%.
Screening O=C(CCc1ccccc1)NN1C(=O)C2C3C=CC(O3)C2C1=O (centres undefined) returned Rango release inh -18%, GLA inh pH 4.5 4, Rango-impB inh -5.8% and miR-21 FLuc -9%.
For CCOC(=O)C1CCCN(c2ncnc3c2cnn3-c2cccc(C)c2)C1 (centres undefined) the results were Rango release inh 20%, GLA inh pH 4.5 5, Rango-impB inh 2.0% and miR-21 FLuc -39%.
`Cc1ccc(C(=O)NC(=S)Nc2ccc(-c3cc4ccccc4oc3=O)cc2)c(C)c1` gave Rango release inh 31%, GLA inh pH 4.5 8, Rango-impB inh -0.2% and miR-21 FLuc 28%.
COc1ccc(CCn2nnnc2C(c2ccc(C)cc2)N2CCN(C)CC2)cc1OC (centres undefined) was read as Rango release inh 1%, GLA inh pH 4.5 -3, Rango-impB inh 2.9% and miR-21 FLuc 0%.
Screening CC(C)n1nnnc1SCC(=O)NNC(=O)C1CCCCC1 returned Rango release inh 4%, GLA inh pH 4.5 -19, Rango-impB inh -0.3% and miR-21 FLuc -1%.
`COc1ccc(-n2c(Cn3c(=O)sc4ccccc43)nnc2SCC(N)=O)cc1` gave Rango release inh -10%, GLA inh pH 4.5 2, Rango-impB inh 3.4% and miR-21 FLuc -6%.
For CCCCNC(=O)C1CC(=O)N(CCc2ccc(C)cc2)C1 (centres undefined) the results were Rango release inh 6%, Rango-impB inh 0.6% and miR-21 FLuc 2%.
CCCCCCNC(=O)c1cccc(-c2ccc(C)c3ccccc23)n1 was read as Rango release inh inconclusive, GLA inh pH 4.5 7, Rango-impB inh inconclusive and miR-21 FLuc -15%.
Screening O=C(NCC1CCCO1)NC1CCCCC1 (centres undefined) returned Rango release inh inconclusive, GLA inh pH 4.5 -1, Rango-impB inh 0.1% and miR-21 FLuc -10%.
CC(=NNc1ccccc1)C(C)=NNc1ccccc1 was read as Rango release inh -7% and Rango-impB inh 6.0%.
`CCOC(=O)c1cnc2ccc(C(=O)OC)cc2c1Nc1ccc2c(c1)OCCO2` gave Rango release inh 17%, Rango-impB inh 1.4% and miR-21 FLuc -7%.
`Cc1ccnc(NS(=O)(=O)c2ccc(NC(=O)c3ccc(S(=O)(=O)N4CCCC4)cc3)cc2)n1` gave Rango release inh -6%, GLA inh pH 4.5 -11, Rango-impB inh 0.9% and miR-21 FLuc -4%.
Screening Cc1c(C#N)c(N)nc2c3c(sc12)NC(=O)CC3c1ccc(Cl)cc1 (centres undefined) returned Rango release inh -15%, GLA inh pH 4.5 16, Rango-impB inh 2.3% and miR-21 FLuc -27%.
For O=C(C[C@@H]1C/C=C\C[C@@H](Cc2ccc(F)cc2)C(=O)OC[C@@H](Cc2ccccc2)NC1=O)N[C@H](CO)Cc1ccccc1 the results were Rango release inh 0% and Rango-impB inh -0.4%.
`CS(=O)(=O)c1ccc(Cl)c(NC(=O)CN2CCN(C(=O)c3cccs3)CC2)c1` gave Rango release inh 7% and Rango-impB inh -0.6%.
CC(C)=CC(=O)NCc1c(Cl)cccc1-n1cccc1 was read as Rango release inh -13%, GLA inh pH 4.5 2, Rango-impB inh 0.9% and miR-21 FLuc -2%.
`COc1ccc2cc3c(N)nn(C(=O)C4CCC(C(C)(C)C)CC4)c3nc2c1` (centres undefined) gave Rango release inh -18%, GLA inh pH 4.5 -25, Rango-impB inh -1.5% and miR-21 FLuc -3%.
Screening COc1cc(CNC2CCCCCC2)cc(OC)c1 returned Rango release inh -15%, GLA inh pH 4.5 2, Rango-impB inh 0.9% and miR-21 FLuc -2%.
For CC(Oc1ccc(F)cc1)C(=O)/C=C\N(C)C (centres undefined) the results were Rango release inh inconclusive, GLA inh pH 4.5 0, Rango-impB inh inconclusive and miR-21 FLuc -1%.
Screening O=C(COC(=O)c1cccc(N2C(=O)C3CC=CCC3C2=O)c1)c1ccccc1 (centres undefined) returned Rango release inh -19%, Rango-impB inh 2.9% and miR-21 FLuc -5%.
For COC(=O)[C@@]12CCCCN1[C@H](c1ccc(-c3ccc(C(C)=O)cc3)cc1)[C@@H]1C(=O)N(C)C(=O)[C@@H]12 the results were Rango release inh -16% and Rango-impB inh 4.1%.
Cc1cccc(NC(=O)c2cccc(OC(=S)N3CCOCC3)c2)c1C was read as Rango release inh 28%, Rango-impB inh inconclusive and miR-21 FLuc -24%.
COc1ccc(CNc2nnnn2C)cc1 was read as Rango release inh 23%, Rango-impB inh -1.9% and miR-21 FLuc 1%.
For COc1ccc(N2CCN(CCNC(=O)Nc3ccc([N+](=O)[O-])cc3OC)CC2)cc1 the results were Rango release inh -18%, Rango-impB inh 1.0% and miR-21 FLuc 6%.
`COc1ccc(OC)c(Nc2cc3ccccc3c(=O)[nH]2)c1` gave Rango release inh inconclusive and Rango-impB inh inconclusive.
For Cc1ccc(C(=O)N2CCc3ccccc32)o1 the results were Rango release inh 29%, GLA inh pH 4.5 3, Rango-impB inh 0.3% and miR-21 FLuc -35%.
`CC1CCN(CCCOc2ccc(OCc3ccccc3)cc2)CC1` gave Rango release inh -12%, GLA inh pH 4.5 -5, Rango-impB inh -0.4% and miR-21 FLuc -42%.
Screening CCCCC1=CC2=C(c3ccco3)C(=O)C(C)(OC(=O)c3ccc(OC)cc3)C(=O)C2=CN1CCOC (centres undefined) returned Rango release inh -5%, GLA inh pH 4.5 2&-17, Rango-impB inh 1.6% and miR-21 FLuc 0%.
COc1ccc(-c2cc(C(F)(F)F)nc(-n3cc(Br)cn3)n2)cc1 was read as Rango release inh 0%, GLA inh pH 4.5 4, Rango-impB inh 0.0% and miR-21 FLuc 0%.
CC(C)(C)N(NC(=O)c1ccccc1)C(=O)c1ccc(C(=O)N(NC(=O)c2ccccc2)C(C)(C)C)cc1 was read as Rango release inh 0%, GLA inh pH 4.5 -2, Rango-impB inh -0.9% and miR-21 FLuc 0%.
`COc1ccccc1CN1CC(C(=O)NCCSc2nnnn2C)CCC1=O` (centres undefined) gave Rango release inh -9%, Rango-impB inh -2.1% and miR-21 FLuc -4%.
`O=S(=O)(Nc1ccc(-c2nc3cccnc3s2)cc1)c1ccccc1F` gave Rango release inh inconclusive, GLA inh pH 4.5 inconclusive, Rango-impB inh inconclusive and miR-21 FLuc -66%.

Two compounds picked at random from the list so far, as already listed:
`O=S(=O)(Nc1ccc(-c2nc3cccnc3s2)cc1)c1ccccc1F` gave Rango release inh inconclusive, GLA inh pH 4.5 inconclusive, Rango-impB inh inconclusive and miR-21 FLuc -66%.
`COc1ccccc1CN1CC(C(=O)NCCSc2nnnn2C)CCC1=O` (centres undefined) gave Rango release inh -9%, Rango-impB inh -2.1% and miR-21 FLuc -4%.

Following part:
Screening CS(=O)(=O)Nc1ccccc1Oc1ccccc1 returned Rango release inh 1%, GLA inh pH 4.5 1, Rango-impB inh 1.9% and miR-21 FLuc -9%.
O=C(NCCC1=CCCCC1)C(=O)NCC1OCCCN1S(=O)(=O)c1ccccc1 (centres undefined) was read as Rango release inh 10%, GLA inh pH 4.5 -2, Rango-impB inh -4.0% and miR-21 FLuc -7%.
CCOc1cc(C2C3=C(CCCC3=O)N(C)C3=C2C(=O)CCC3)cc(Cl)c1O was read as Rango release inh -23%, GLA inh pH 4.5 2, Rango-impB inh inconclusive and miR-21 FLuc -7%.
`Cc1c(C(=O)Nc2ccc(-n3cnnn3)cc2)oc2ccccc12` gave Rango release inh -5%, GLA inh pH 4.5 -6, Rango-impB inh 1.0% and miR-21 FLuc -7%.
CC(C)NC(=O)c1cc2c(s1)CCCC2 was read as Rango release inh 0%, GLA inh pH 4.5 -4, Rango-impB inh 0.7% and miR-21 FLuc -44%.
S=c1[nH]ncn1/N=C/c1cccc(Oc2ccccc2)c1 was read as Rango release inh 0%, GLA inh pH 4.5 4, Rango-impB inh -1.1% and miR-21 FLuc -7%.
Screening COc1ccc(-c2[nH]nc3oc(=O)c(CCO)c(C)c23)cc1 returned Rango release inh -4%, GLA inh pH 4.5 2, Rango-impB inh 2.6% and miR-21 FLuc 1%.
For COc1cccc(CNC(=O)Cn2c(=O)c3cccn3c3ccccc32)c1 the results were Rango release inh -11%, Rango-impB inh -4.1% and miR-21 FLuc -1%.
For CCN1CCN(c2c(C(=O)c3ccc(OC)cc3)cnc3ccccc23)CC1 the results were Rango release inh -3%, GLA inh pH 4.5 7, Rango-impB inh 2.8% and miR-21 FLuc -4%.
Cc1ccc(C(=O)CCC(=O)CCC(=O)O)cc1 was read as Rango release inh inconclusive and Rango-impB inh 1.5%.
For OC(c1ccccc1)c1cccnc1 (centres undefined) the results were Rango release inh 16%, GLA inh pH 4.5 -24, Rango-impB inh -1.2% and miR-21 FLuc 4%.
For Cc1ccc(Nc2c([N+](=O)[O-])c(=O)oc3ccccc23)cc1 the results were Rango release inh 0%, GLA inh pH 4.5 -6, Rango-impB inh 0.7% and miR-21 FLuc 24%.
`O=C(CN(C(=O)CNC(=O)c1cccs1)c1ccc2c(c1)OCCO2)NC1CCCC1` gave Rango release inh 16%, GLA inh pH 4.5 0, Rango-impB inh 3.0% and miR-21 FLuc -10%.
`CC1Cc2cc(/C(O)=C3/C(=O)C(=O)N(Cc4cccnc4)C3c3cccc(O)c3)ccc2O1` (centres undefined) gave Rango release inh -4%, Rango-impB inh 0.5% and miR-21 FLuc -6%.
Screening Cc1cc(NC(=O)CCCC(=O)N(c2ccccc2)C(C(=O)NC2CCCCC2)c2cccs2)no1 (centres undefined) returned Rango release inh 21%, GLA inh pH 4.5 0, Rango-impB inh -0.1% and miR-21 FLuc -5%.
`CC(/C=C1\SC(=S)N(CCCC(=O)Nc2ccc(C(=O)O)c(O)c2)C1=O)=C\c1ccccc1` gave Rango release inh -12%, GLA inh pH 4.5 1, Rango-impB inh -0.8% and miR-21 FLuc -48%.
Screening O=C(NC1CC1)C1CCCN(C(=O)Nc2ccc(F)cc2)C1 (centres undefined) returned Rango release inh -8%, GLA inh pH 4.5 3, Rango-impB inh -2.9% and miR-21 FLuc -4%.
For Cc1cc(=O)oc(C)c1C(=O)NCc1cccnc1 the results were Rango release inh 20%, GLA inh pH 4.5 -2, Rango-impB inh -3.9% and miR-21 FLuc 0%.

Some of these compounds in order of heavy-atom count, descending.
`CC1Cc2cc(/C(O)=C3/C(=O)C(=O)N(Cc4cccnc4)C3c3cccc(O)c3)ccc2O1` (centres undefined) gave Rango release inh -4%, Rango-impB inh 0.5% and miR-21 FLuc -6%.
For CCN1CCN(c2c(C(=O)c3ccc(OC)cc3)cnc3ccccc23)CC1 the results were Rango release inh -3%, GLA inh pH 4.5 7, Rango-impB inh 2.8% and miR-21 FLuc -4%.
Cc1ccc(C(=O)CCC(=O)CCC(=O)O)cc1 was read as Rango release inh inconclusive and Rango-impB inh 1.5%.
